Screening results from PubChem.
VDR inhibitor = blocks the human vitamin D receptor. P11473. VDR-SRC2-3 peptide fluorescence polarization, 2 h. Potency, µM, without a hit: max response, negative = inhibition, actives largely listed as inhibitors. hit rate 0.93% among 400,000. AID 504847; active = well fitted inhibition curve with a large enough effect; inconclusive = small, poorly fitted or top-dose-only effect, or another doubt; inactive = no such curve, though single readings can be large or run the other way; also: series mostly up to about 120 µM
Target sequence (P11473 whole entry, looked up): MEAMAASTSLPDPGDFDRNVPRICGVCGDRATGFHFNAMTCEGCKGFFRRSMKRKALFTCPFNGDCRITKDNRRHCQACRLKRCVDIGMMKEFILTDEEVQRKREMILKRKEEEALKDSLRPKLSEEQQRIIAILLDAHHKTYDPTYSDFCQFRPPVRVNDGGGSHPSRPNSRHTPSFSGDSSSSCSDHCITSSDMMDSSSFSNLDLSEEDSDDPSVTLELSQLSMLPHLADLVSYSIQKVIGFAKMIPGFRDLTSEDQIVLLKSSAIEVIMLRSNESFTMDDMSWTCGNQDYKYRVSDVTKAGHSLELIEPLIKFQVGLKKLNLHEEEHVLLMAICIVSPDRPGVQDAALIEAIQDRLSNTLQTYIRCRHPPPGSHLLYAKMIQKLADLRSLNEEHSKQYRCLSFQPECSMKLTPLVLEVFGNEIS
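Signal is fluorescence polarization, reporting how far test compounds block the interaction of VDR with the SRC2-3 coregulator peptide after a 2 h room-temperature incubation.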
Numbers without * were called inactive; ? = inconclusive; & = joins results of further samples; [ ] = another dose, or the depositor's remark. % is scaled to controls: 0 for no effect and ±100 for the full control effect; potency is read from the fitted curve at half-maximal effect.

SMILES | VDR inhibitor
Cc1ccc(-n2nc3c(c2NC(=O)c2ccco2)CS(=O)C3)cc1 (centres undefined) | ?
COc1cc(CNc2ccc3[nH]c(=O)[nH]c3c2)cc(Cl)c1OCc1ccccc1F | 6%
O=C(O)c1ccc(Nc2ccc(F)c(F)c2)c([N+](=O)[O-])c1 | -10%
COc1ccc(-c2nc(C(N)=O)c3[nH]c(=O)n(-c4cccc(Cl)c4)c3n2)cc1OC | -10%
CCCC(=O)Nc1cc(-c2nn(C)c(=O)c3ccccc23)ccc1N1CCOCC1 | 22%
COc1ccc2[nH]c3c(=O)n(CCCCC(=O)N4CCCC4)c(=S)[nH]c3c2c1 | 5%
CC(C)(C)C1CCC(=NNC(=O)CN(c2ccccc2)S(C)(=O)=O)CC1 (centres undefined) | 16%
Cn1cccc1C(=O)C(=O)Nc1cccc(Cl)c1Cl | -28%
CCOC(=O)Cc1csc(NC(=O)c2ccc(C)o2)n1 | -12%
Cc1cc(C)cc(-n2ncc3c2CCCC3NC(=O)C2CCC2)c1 (centres undefined) | -13%
COc1ccc(-n2c3c(c(=O)[nH]c2=O)C(NC(C)=O)(C(F)(F)F)C(=O)N3)cc1 (centres undefined) | -7%&3%
O=C(Cn1c(=O)nc(-c2ccccc2)c2ccccc21)Nc1cccc(C(F)(F)F)c1 | -4%
Cc1ccc(-c2csc(N(CCc3ccccc3)C(=O)COc3ccccc3)n2)cc1 | 5%
CC(C(=O)Nc1ccon1)N1C(=O)c2ccccc2S1(=O)=O (centres undefined) | -14%
NN(CCO)C(=S)Nc1ccc(Cl)cc1 | 0%
CCOC(=O)C1(CCCc2ccccc2)CCN(Cc2ccn[nH]2)CC1 | -14%
O=C(NCCCCC(NC(=O)C1CCCCC1)C(=O)O)c1ccccc1 (centres undefined) | -2%
CCc1sc(C(=O)NCCc2ccc(S(N)(=O)=O)cc2)cc1C | 4%
CCN(CC)C1CCS(=O)(=O)C1 (centres undefined) | 16%
Cc1ccc(CNC(=O)CCc2ccccc2)cc1 | -2%
COCCCNC(=O)C1CCCN(S(=O)(=O)c2ccc(C)cc2)C1 (centres undefined) | -1%
O=C(Nc1ccc(F)cc1F)c1ccc2c(c1)[nH]c(=O)n2Cc1ccc(F)cc1 | -18%
O=C(CC(SCc1ccco1)c1ccc(O)cc1)c1cccs1 (centres undefined) | -9%
Cc1ccc(N2C(=O)CC(Sc3ccccc3C(=O)O)C2=O)cc1 (centres undefined) | -19%
CCc1ccc2occ(CC(=O)N(Cc3ccc(N(C)C)cc3)C3CCS(=O)(=O)C3)c2c1 (centres undefined) | -5%
Cc1ccc(NCc2cccn2-c2nnc(N3CCC(C(=O)NCCc4ccc(Cl)cc4)CC3)s2)cc1 | -15%
CC(=O)c1ccc(-c2ccccc2OC(F)(F)F)o1 | -7%
COc1ccc(CN2CCN(Cc3ccc(C)cc3)CC2)c(OC)c1 | -8%
CC(C)(C)NC(=O)N1CCCC(C(=O)c2cccc(Cl)c2)C1 (centres undefined) | 24%
O=C(C1CCC(CNc2c(N3CCCC3)c(=O)c2=O)CC1)N1CCc2ccccc21 (centres undefined) | -13%
Cc1ccc(CN2CCN(C3CSCCSC3)CC2CCO)cc1 (centres undefined) | -14%
O=c1c2ccccc2n2c(-c3ccc(C(F)(F)F)cc3)nnc2n1Cc1ccccc1 | -6%
CC(=O)C1=C(C)NC(SCSc2ccccc2)=C(C#N)C1c1cccnc1 (centres undefined) | -8%
CC(=O)c1[nH]c(C)c(C(=O)N2CCCC(Nc3cccc(F)c3)C2)c1C (centres undefined) | 2%
CN(C(=O)COC(=O)c1ccc2c(c1)OCO2)C1CCS(=O)(=O)C1 (centres undefined) | 8%
Cn1c(-c2cccc(Br)c2)cnc1NCc1ccccc1O | 25%
Cc1cccc2c1-c1sc(C(=O)N3CCCCC3)cc1CO2 | -6%
O=C(CN1C(=O)NC(c2ccccc2)(c2ccccc2)C1=O)Nc1ccc(N2CCOCC2)cc1 | 15%
COc1cc(C(=O)OC(C)C(=O)Nc2ccc3c(c2)OCCO3)cc(OC)c1OC (centres undefined) | 9%
CCOC(=O)N1CCC(N2Cc3cccc(C(=O)Nc4c(C)cccc4CC)c3C2=O)CC1 | ?
COc1ccc(NC(=O)NNC(=O)C(C)Oc2ccc3ccccc3c2)cc1 (centres undefined) | -13%
O=C(Nc1ccc(F)c(F)c1)C1=COCCO1 | -10%
CC1CCC(NC(=O)CCc2cn(Cc3ccccc3Cl)c3ccccc23)CC1 (centres undefined) | 6%
CCn1c(SCC(=O)N2CCCC2)nnc1-c1ccc(S(=O)(=O)N2CCCCCC2)cc1 | -5%
CCCOc1ccccc1C(=O)Nc1ccc(-c2nc3ccc(C)cc3s2)cc1 | 19%
Cc1cc(C)n(-c2ccc(Cl)c(C(=O)Nc3ccc(-c4nnc5n4CCCCC5)cc3)n2)n1 | -15%
Cc1cc(=O)n2[nH]c(-c3ccc(F)cc3)nc2n1 | -19%
O=C(Nc1ccsc1C(=O)N1CCCC1)c1ccccc1 | -17%
CCOc1ccccc1C(=O)N(Cc1ccccc1F)C1CCS(=O)(=O)C1 (centres undefined) | 6%
Cc1ccc2cc3cc(C(=O)NCc4ccco4)oc3nc2c1 | 2%
Cc1ccc(C(=O)NCCn2cc(SCC(=O)N3CCOCC3)c3ccccc32)cc1 | 9%
C=CCN1C(=NC(=O)COc2ccccc2)SC2CS(=O)(=O)CC21 (centres undefined) | 4%
Cc1cn2c(=O)cc(COc3cc(C)c(Cl)c(C)c3)nc2s1 | -2%
Cc1ccc(-c2cnc3n2CCCCC3)cc1 | -3%
CCN(CC)c1ccc(NC(=O)c2c(C)noc2C)cc1 | 33%[activator]
O=C(Nc1ccc(N2CCOCC2)cc1)c1ccc(Br)o1 | -4%
Cn1c(=O)cc(SCC(=O)NCCCN2CCOCC2)c2ccccc21 | 3%
CCOC(=O)c1ccccc1NC(=O)c1cncc(Br)c1 | -7%
COc1ccccc1CCC(=O)OCC(=O)Nc1ccc(C(N)=O)cc1 | 6%
COc1ccc(N2CC(O)=C(c3nc4ccccc4s3)C2=N)c(OC)c1 | -2%

Some of the entries so far, as tab-separated lines:
mol	VDR inhibitor
CC(=O)C1=C(C)NC(SCSc2ccccc2)=C(C#N)C1c1cccnc1 (centres undefined)	-8%
CC(=O)c1[nH]c(C)c(C(=O)N2CCCC(Nc3cccc(F)c3)C2)c1C (centres undefined)	2%

The listing continues:
SMILES | VDR inhibitor
CSc1ncccc1C(=O)OCC(=O)Nc1ccc(N2CCOCC2)cc1 | 13%
CN(C)S(=O)(=O)c1cc(NC(=O)COC(=O)C2COc3ccccc3O2)ccc1Cl (centres undefined) | -26%
CC(=O)/C(=C/N(C)C)C(=O)Nc1ccc(Cl)cc1Cl | ?
CCOc1ccc(C(=O)NC(=S)N2CCN(c3ccc(C(F)(F)F)cc3[N+](=O)[O-])CC2)cc1 | 4%
CCOc1ccccc1OCCOc1ccccc1OC(C)C | 10%
O=C(Nc1nc2ccc(SC(F)F)cc2s1)c1ccc(NS(=O)(=O)c2ccc(F)c(F)c2)cc1 | -4%
O=C1c2ccccc2C(=O)N1OCc1cccc(Cl)c1 | 32%[activator]
CCN(CC)S(=O)(=O)c1ccc(-c2csc(C)n2)cc1 | 22µM*
Cc1ccc(NC(=S)NCc2ccccc2)cc1[N+](=O)[O-] | -3%
Cc1ccc(NC(=S)N2CCCCC2CO)cc1C (centres undefined) | -9%
CC(C)NS(=O)(=O)c1ccc(OCC(=O)N2CCc3ccccc3C2)cc1 | -1%
Cc1ccc(Cn2cc(/C=C/C(=O)O)c(-c3ccccc3)n2)cc1 | 1%
O=C(CN1C(=O)C2C3C=CC(C3)C2C1=O)Nc1nc(-c2ccccn2)cs1 (centres undefined) | 10%
COc1ccc2nc(SCc3cnc(C)nc3N)[nH]c2c1 | -8%
Cc1nc(C(C)NC(=O)c2ccc(OC3CCN(Cc4ccccn4)CC3)cc2)c(C)s1 (centres undefined) | 1%
CC1CCCCN1CC(=O)N1CCCc2c1c(=O)oc1ccc(OCc3ccccc3)cc21 (centres undefined) | 5%
CCOC(=O)CN1CC23C=CC(O2)C(C(=O)NCc2ccccc2OC)C3C1=O (centres undefined) | -2%
CCC(C)NC(=O)C1c2ccccc2C(=O)N1Cc1ccc(F)cc1 (centres undefined) | 3%
COc1cc(C(CC(=O)Nc2ccccn2)N2Cc3ccccc3C2=O)cc(OC)c1OC (centres undefined) | 4%
CCc1nnc(NC(=O)C2=CCN(S(=O)(=O)c3ccc(F)cc3)CC2)s1 | 8%
O=C(Nc1cnn(Cc2c(Cl)cccc2Cl)c1)c1ccc([N+](=O)[O-])cc1 | 11%
CCOc1ccc(C(=O)NCC(=O)NNC(=O)c2cc(C)oc2C)cc1OCC | 6%
Cc1cccc(CC(=O)NCCS(=O)(=O)N2CCN(c3cccc(Cl)c3)CC2)c1 | -2%
CCc1cc(C(=O)N2CCN(C(=O)c3ccco3)CC2)sc1C | 1%
O=C(NC1CC1)c1cc2ccccc2o1 | -5%
CC(O)Cc1nsc(NC(=O)c2cccs2)n1 (centres undefined) | 3%
Nc1ccc(NC(=O)c2ccc(C(=O)Nc3ccc(N)cc3)cc2)cc1 | 5%
COc1cc2c(cc1NC(=O)CN1CCN(S(=O)(=O)c3ccc(C)cc3)CC1)oc1ccccc12 | -15%
COc1ccc(-c2csc(NC(=O)CS(=O)(=O)c3ccccc3)n2)cc1 | 12%
CCCCNC(=O)CCNC(=O)c1ccc(C(C)(C)C)cc1 | -15%
CCC(=O)c1ccc(OCc2ccc(C#N)cc2)cc1 | 1%
CCOC(=O)c1[nH]c(C)c(C(=O)OCC(=O)NC2CCS(=O)(=O)C2)c1C (centres undefined) | 6%
Cc1ccccc1Cc1c(C)nc2nc(SCC(=O)NCCc3ccc(Cl)cc3)nn2c1C | -2%
Cc1cc(C(F)(F)F)nn1CC(=O)Nc1ccc(Br)c2cccnc12 | 3%
Cc1ccc(NC(=O)N2CCN(C(=O)C3CCCO3)CC2)cc1 (centres undefined) | -6%
N#Cc1cc(Oc2cccc3cccnc23)c(-n2nnc3ccccc32)cc1C#N | ?
CCN(c1cc(C)cc(C)c1)S(=O)(=O)c1nnc(NC(=O)C(C)C)s1 | 11%
S=C(Nc1cccc2ccccc12)N1CCN(c2ncccn2)CC1 | 12%
COc1ccc(NC(=O)/C(=C\c2ccc(OC)c(OC)c2)NC(=O)c2ccco2)cc1 | 11%
Cc1nc(=O)c(-c2ccccc2)c(C)n1-c1ccc(S(N)(=O)=O)cc1 | -16%
CCCP(=O)(CCC)CCP(=O)(c1ccccc1)c1ccccc1 | -7%
CCN(CC)CCCNC(=O)c1oc2ccc3c(c2c1C)C(O)CC(C)(C)O3 (centres undefined) | -7%
O=C(Nc1ccccc1)OC1CCS(=O)(=O)C1 (centres undefined) | 6%
O=C(NC1CCCCC1)c1ccc2c(c1)S(=O)(=O)c1ccccc1C2=O | -4%
Cc1cc2nsnc2c(S(=O)(=O)N2CCN(C)CC2)c1C | -4%
Cc1ccc(O)c(C(=O)c2cnc3c(c2)CN(C)C(=O)N3)c1 | -6%
COc1ccc(CC(=O)OCC(=O)N2CCCC(C)C2)cc1 (centres undefined) | 3%
CSc1nc2c(ccc3ccccc32)o1 | 16%
NCCCC[C@H](N)C(=O)N[C@@H](CCCN=C(N)N)C(=O)N1CCC[C@H]1C(=O)N1CCC[C@H]1C(=O)NCC(=O)N[C@@H](Cc1ccccc1)C(=O)N[C@@H](CO)C(=O)N1CCC[C@H]1C(=O)N[C@@H](Cc1ccccc1)C(=O)O | -3%
CCN(CC(=O)Nc1c(F)cccc1F)C(=O)c1cc([N+](=O)[O-])ccc1N1CCCCC1 | 2%
N#CCCn1c(=O)c(-c2ccc(Cl)cc2)nc2cnc(Nc3ccccc3)nc21 | 0%
Cn1nnnc1SCC1=C(C(=O)O)N2C(=O)C(NC(=O)C(O)c3ccccc3)C2SC1 (centres undefined) | 50µM*
C#CCn1c(/C=C/c2ccc(Cl)cc2)nc2ccccc21 | -2%
COc1ccccc1N1CCN(C(=O)C(=O)c2cn(CC(=O)N3CCCC3)c3ccccc23)CC1 | -6%
C/C(=N\NC(=O)c1c(Cl)cnn1C)c1ccc(NC(=O)c2ccncc2)cc1 | -1%
O=C(c1ccc(S(=O)(=O)N2CCC(c3nc4ccccc4[nH]3)CC2)cc1)N1CCOCC1 | -15%
Nc1nc(SCc2c(Cl)cccc2Cl)n[nH]1 | -20%
CCOc1ccc(-c2cc(CCCC(=O)N3CCN(c4ccc(OC)cc4)CC3)no2)cc1 | -5%

Entries from the list above with two or more sulfur atoms (14):
SMILES | VDR inhibitor
CCc1sc(C(=O)NCCc2ccc(S(N)(=O)=O)cc2)cc1C | 4%
O=C(CC(SCc1ccco1)c1ccc(O)cc1)c1cccs1 (centres undefined) | -9%
Cc1ccc(CN2CCN(C3CSCCSC3)CC2CCO)cc1 (centres undefined) | -14%
CC(=O)C1=C(C)NC(SCSc2ccccc2)=C(C#N)C1c1cccnc1 (centres undefined) | -8%
CCn1c(SCC(=O)N2CCCC2)nnc1-c1ccc(S(=O)(=O)N2CCCCCC2)cc1 | -5%
C=CCN1C(=NC(=O)COc2ccccc2)SC2CS(=O)(=O)CC21 (centres undefined) | 4%
O=C(Nc1nc2ccc(SC(F)F)cc2s1)c1ccc(NS(=O)(=O)c2ccc(F)c(F)c2)cc1 | -4%
CCN(CC)S(=O)(=O)c1ccc(-c2csc(C)n2)cc1 | 22µM*
CCc1nnc(NC(=O)C2=CCN(S(=O)(=O)c3ccc(F)cc3)CC2)s1 | 8%
CC(O)Cc1nsc(NC(=O)c2cccs2)n1 (centres undefined) | 3%
COc1ccc(-c2csc(NC(=O)CS(=O)(=O)c3ccccc3)n2)cc1 | 12%
CCN(c1cc(C)cc(C)c1)S(=O)(=O)c1nnc(NC(=O)C(C)C)s1 | 11%
Cc1cc2nsnc2c(S(=O)(=O)N2CCN(C)CC2)c1C | -4%
Cn1nnnc1SCC1=C(C(=O)O)N2C(=O)C(NC(=O)C(O)c3ccccc3)C2SC1 (centres undefined) | 50µM*

An excerpt; count on the stated rates, not on these rows.
